Bioassay records from PubChem BioAssay.
Sa RN4220 lethal = kills Staphylococcus aureus RN4220. 0.33% of 330,000 active. S. aureus RN4220 growth, OD600, 16 h. inhibition, % (concentration not given with the values);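 active means z-score of -3 or lower and OD600 up to 0.18 on both plates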;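 further: plate controls were untreated cells for no effect and reference antibiotic for full effect; stock transfer was 100 nL into about 80 µL; one replicate is shown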
Bead autofluor = counter-screen for toxin protease inhibitors: compound fluorescence. AID 624483. fluorescence intensity (no concentration beside the values). compound autofluorescence counterscreen, microsphere flow cytometry; active compounds read high. 3.1% of 360,000 active;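 active means at least 3 SD above the mean of all compounds, about 16000 in these data; inconclusive means too few beads counted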;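 further: 100 nL of 1 mM stock went into each well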
PrP 5UTR inh = inhibition of PrP 5' UTR reporter expression; cell-based PrP 5' UTR mRNA reporter, plate reader; inhibition, % (concentration not given with the values); 0.35% of 340,000 active;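 active means every replicate at 50% or more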;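 further: 0 = median of the neutral control wells; tested in H4 reporter cells; numbers are from one replicate; inactives centre near -14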
Mtb hypoxia rep = reduces hypoxia-regulated biosensor signal in M. tuberculosis; M. tuberculosis hypoxia-regulated fluorescent reporter, fluorescence; fluorescence inhibition, % (test concentration not listed); 0.1% of 300,000 active; AID 1159583;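 active means 35 to 45% if threefold the growth effect, above 45% if 1.5-fold the growth effect; inactive means the rest, general growth blockers included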;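 further: wells of about 50 µL received 100 nL stock; 0% = vehicle wells and 100% = reference inhibitor wells; whole bacteria with a GFP reporter of the hypoxia response; strong numbers were not always called active; many hits fall short of the cut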
ugtP null kill = growth inhibition of S. aureus ugtP deletion strain; S. aureus RN4220 ugtP deletion, OD600 growth, 16 h; some inactives read as strong as hits; growth inhibition, % (concentration not given with the values); 0.54% of 330,000 active; AID 1259309;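 active means z-score under -3 and OD600 up to 0.15 on both plates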;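 further: plate controls were untreated wells for no effect and antibiotic for full effect; wells of about 80 µL received 100 nL stock; the first replicate is given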
BJeLR lethal = kills HRASV12-expressing BJeLR cells; BJeLR (HRASV12) viability, CellTiter-Glo ATP luminescence, 48 h; reference of the scale not given here; inhibition, % (test concentration not listed); 0.17% of 300,000 active; AID 1554;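 active means replicate mean above 50%; inconclusive means above 50% but judged a plate artefact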;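 further: 50 nL library stock added to about 25 µL; numbers are from one replicate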
Mtb hypoxia rep growth = second read-out of Mtb hypoxia rep, no call of its own (marks repeat the call); growth inhibition, %; measured here: M. tuberculosis growth (absorbance);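 0% = vehicle and 100% = reference antibiotic; read after six days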
An asterisk follows results filed as active; ? = inconclusive; . = no result given.

canonical_smiles,Sa RN4220 lethal,Bead autofluor,PrP 5UTR inh,Mtb hypoxia rep,Mtb hypoxia rep growth,ugtP null kill,BJeLR lethal
COc1cccc(C=NNC(=O)c2c(-c3ccccc3)noc2C)c1,-1.3,.,.,0,7,-6,.
COC(=O)c1ccc(NC(=O)C2CCCN2S(=O)(=O)c2ccc(F)cc2)cc1 (configuration not stated),-1.0,4350,-13,.,.,5,-3
Cc1ccc(O)c(-c2cc(-c3ccccc3F)[nH]n2)c1,-20,3225,-32,14,2,0,-8
CC(C)N(C)S(=O)(=O)c1ccc(NC(=O)CSC(=S)N2CCCC2)cc1,0.7,?,-24,-4,5,0,2
CCOc1ccc(/C=N/OCC(=O)Nc2cc(C)on2)cc1,.,2553,-10,.,.,.,0
O=C(CSc1ncn[nH]1)N1N=C2/C(=C\c3ccco3)CCCC2C1c1ccco1 (configuration not stated),1.4,3001,1,6,1,-5,.
COc1cc(OC)cc(C(=O)OCC(=O)Nc2cccc(S(=O)(=O)NC3=NCCCCC3)c2)c1,2.8,4604,-18,-3,4,1,.
COc1ccccc1NS(=O)(=O)c1ccc2c(c1)NC(=O)CC(=O)N2,1.6,6392,-26,-4,3,0,3
CCOc1ccc(OCC)c(NC(=O)CSCC(=O)O)c1,4.4,3757,-21,7,9,3,0
CCCn1c(CNC(=O)c2cccs2)nc2ccccc21,-0.9,5369,0,-5,3,-3,-2
O=C(CN1C(=O)c2ccccc2S1(=O)=O)N1CCCCC1,-2.2,3004,-27,-10,-9,-1,-6
COc1ccc(N(C(C)C(=O)N(C)Cc2ccccc2)S(C)(=O)=O)cc1 (configuration not stated),2.2,4327,-4,5,8,8,0
O=C(NC1(C(F)(F)F)N=C2SCCN2C1=O)c1ccccc1F (configuration not stated),2.1,.,.,-2,11,3,-12
Cc1cccc(/C=C2/SC(=O)N(Cc3ccccc3)C2=O)n1,-0.8,10255,16,-1,2,-5,-2
O=C(CCCn1cc([N+](=O)[O-])cn1)N1CCCCC1,3.1,4665,-13,-4,-10,0,-9
O=C(N/N=C/c1cccc(F)c1)c1c(O)c2ccccc2[nH]c1=O,.,2097,-61,.,.,.,0
O=C(CN1C(=O)c2ccccc2C1=O)Nc1ccccc1F,-3.1,2467,-21,.,.,-3,-3
COc1ccc(NC(=O)N2CCC3(CC2)OCCO3)c(OC)c1,-1.5,2670,-21,-3,-9,-3,3
CCN(CC(=O)Nc1c(F)cccc1F)C(=O)c1cc(-c2cccs2)nn1-c1ccccc1,0.9,6317,-20,-2,0,8,0
O=C1c2ccccc2C(=O)N1c1ccc(S(=O)(=O)N2CCN(c3ccccc3)CC2)cc1,7.1,2925,6,2,3,-6,-11
Cc1cccc2cc(C(c3nnnn3CC3CCCO3)N3CCCc4ccccc43)c(=O)[nH]c12 (configuration not stated),-1.5,11373,-22,-10,5,-16,10
CN(Cc1ccccc1)C(=O)COC(=O)CCN1C(=O)C2CC=CCC2C1=O (configuration not stated),2.3,3873,-14,10,3,2,.
Cc1cccc2cc(COC(=O)c3cccnc3)c(=O)[nH]c12,1.7,4887,8,.,.,5,-8
COC(=O)C1=C(C)NC2=C(C(=O)c3ccccc32)C1c1ccc(-c2ccc(C(=O)O)cc2)o1 (configuration not stated),57,2649,-18,11,7,74,2
CCn1cc(S(=O)(=O)CC(=O)Nc2ccc3c(c2)OCO3)c2ccccc21,-12,5969,-8,6,7,-2,1
CCCN(CCC)CCNC(=O)C1CCCN(S(=O)(=O)c2ccc3c(c2)oc(=O)n3C)C1 (configuration not stated),5.3,10757,-9,7,11,6,5
CCN(CC)S(=O)(=O)c1ccc2[nH]c(=O)cc(C(=O)Nc3cccc(C(C)=O)c3)c2c1,3.3,4095,-5,-5,-7,4,0
COc1cccc(OCc2cc(C(=O)N(C)CCOc3ccc(C)cc3)no2)c1,.,4573,-49,.,.,.,-3
CCNC(=O)CC1SC(=Nc2ccc(C)cc2)N(CC)C1=O (configuration not stated),0.0,4504,-18,14,14,0,2
CCCn1c(SCC(=O)Nc2ccc(Cl)cc2F)nc(O)cc1=O,4.4,5468,-27,3,0,-3,.
COc1cccc(N(C(=O)Cn2nnc(-c3ccc(C)o3)n2)C(C(=O)NC2CCCC2)c2ccncc2)c1 (configuration not stated),4.6,3768,-18,13,7,-5,2
Cc1nnc(SCC(=O)Nc2cc(Cl)ccc2Cl)n1CC1CCCO1 (configuration not stated),2.7,5730,-18,6,2,11,-1
O=C(c1ccccc1Cl)N1CCC(n2cccc2)CC1,0.0,5282,-21,2,4,3,0
COCCn1c(SCC(=O)Nc2ccccc2OC)nc2ccccc2c1=O,8.1,4145,-12,18,6,8,-7
CCc1c(O)cc2n(c1=O)-c1ccc(Cl)cc1C2(C)C,4.0,3195,2,5,7,-16,3
O=C(NCc1ccncc1)c1cccc(Cn2cc(Br)cn2)c1,1.9,2699,-11,.,.,-1,-2
CC(=NNC(=O)CCCNc1ccc(C)cc1)c1ccccn1,1.5,.,.,-4,8,-1,.
CCS(=O)(=O)N1CCC(C(=O)NCCc2ccc(C)cc2)CC1,4.9,5714,-56,1,5,-1,2
NC(Cc1c[nH]c2ccc(OCc3ccccc3)cc12)C(=O)O (configuration not stated),-2.1,5235,-22,1,8,13,0
Cc1cccc(OCCCC(=O)O)c1,-0.4,4651,-19,.,.,-7,3
CN1CCN(/C(=N\O)c2nonc2N)CC1,.,4398,-24,.,.,.,6
CCN(CC)S(=O)(=O)c1cc(NS(=O)(=O)c2ccc(Cl)c(C(=O)O)c2)ccc1C,1.8,4266,-23,14,13,5,5
CCOC(=O)c1sc2nc(CC(=O)OC)nc(NCc3ccco3)c2c1C,.,3795,-9,.,.,.,-2
COC(=O)c1c(-c2ccccc2)csc1NC(=O)C1CC=CCC1C(=O)O (configuration not stated),0.4,4713,-24,-3,3,-8,-7
O=C1CCCC(c2ccccc2)N1 (configuration not stated),0.9,2075,-9,3,4,3,-4
Cc1cccc(N(CC(=O)NC2CCCC2)C(=O)CNC(=O)c2ccco2)c1C,1.4,3939,-22,-3,5,12,1
CCOC(=O)C1CCCN(CC(=O)Nc2cc(C)cc(C)c2)C1 (configuration not stated),0.3,3990,-9,4,-1,0,-12
CCCCNC(=O)c1c(N)n(CCCOC)c2nc3ccccc3nc12,2.5,21009*,-29,1,13,-10,5

Whole records, quoted from the list. Screens in order: Sa RN4220 lethal	Bead autofluor	PrP 5UTR inh	Mtb hypoxia rep	Mtb hypoxia rep growth	ugtP null kill	BJeLR lethal
Results for `CCOC(=O)c1sc2nc(CC(=O)OC)nc(NCc3ccco3)c2c1C` → .	3795	-9	.	.	.	-2
Results for `CN1CCN(/C(=N\O)c2nonc2N)CC1` → .	4398	-24	.	.	.	6
Results for `COC(=O)c1c(-c2ccccc2)csc1NC(=O)C1CC=CCC1C(=O)O` (configuration not stated) → 0.4	4713	-24	-3	3	-8	-7
Results for `CCN(CC)S(=O)(=O)c1cc(NS(=O)(=O)c2ccc(Cl)c(C(=O)O)c2)ccc1C` → 1.8	4266	-23	14	13	5	5

(list continues)
canonical_smiles,Sa RN4220 lethal,Bead autofluor,PrP 5UTR inh,Mtb hypoxia rep,Mtb hypoxia rep growth,ugtP null kill,BJeLR lethal
CCOC(=O)c1ccc(NC(=O)CN2C(=O)C3C4C=CC(C4)C3C2=O)cc1 (configuration not stated),0.6,3781,-1,.,.,1,2
CCn1c(CNC(=O)c2ccccc2F)nnc1SCC(=O)NC1CCCCC1C (configuration not stated),-0.4,2268,-21,-12,-7,1,0
COc1ccc(C(=O)COC(=O)CSCc2c(C)noc2C)cc1OC,2.3,22438*,2,2,15,1,-2
COc1ccc(N2CCN(C(=O)Cc3ccc(S(=O)(=O)N4CCOCC4)s3)CC2)cc1,7.8,3900,-14,-11,4,6,3
O=C(NCC1CCCO1)C1CCCN(S(=O)(=O)c2cccc(C(F)(F)F)c2)C1 (configuration not stated),0.6,4008,-3,-2,6,1,-2
CCCCN=C(NNc1ccc(Br)cc1)C(=O)OCC,-1.3,2269,-11,-7,0,-4,2
CCN(CCCNC(=O)Cn1ncc2c([nH]c3ccc(C)cc32)c1=O)Cc1ccccc1,3.0,5435,-17,5,10,0,3
C=CCN(CC=C)c1nc2ccccc2nc1C(C#N)C(=O)OC(C)C (configuration not stated),-8.3,2921,8,.,.,1,3
OCCC1CN(Cc2ccccc2OC2CCCC2)CCN1Cc1ccsc1 (configuration not stated),2.0,1965,-11,7,0,1,5
Nc1ccc2c(c1)Cc1c(F)cccc1-2,-3.3,3967,-42,3,8,-5,.
O=C(c1ccc(N2CCCC2=O)cc1)N1CCN(c2ccccc2)CC1,1.3,2333,-10,12,9,8,7
Cc1cccc(OCc2n[nH]c(=S)o2)c1,19,24801*,-32,1,19,-3,2
Cc1nc(C)c(C(=O)NN=Cc2cc(Br)ccc2O)s1,4.6,.,.,-4,0,17,.
Fc1ccc(CSc2nnc(-c3cccs3)o2)cc1,15,9389,-103,.,.,1,-11
Cc1ccc(OCC(=O)Nc2ccc(C(N)=O)cc2)cc1,-1.0,3666,-43,7,0,3,-4
CCCNC(=O)CN1C(=O)COc2ccc(S(=O)(=O)N3CC(C)CC(C)C3)cc21 (configuration not stated),3.3,5099,-11,2,2,3,-11
CCOC(=O)N1CC=C2C(C#N)=C(N)C(C#N)(C#N)[C@H](c3cccs3)C2C1 (some centres not stated),3.7,9201,-5,-93,-11,-11,-2
CCCNC(=O)c1ccc(N2CCC3(CC2)CC(c2cccc(Br)c2)=NO3)c(NC(=O)c2c(Cl)cccc2Cl)c1,6.0,4037,-20,1,15,6,10
Cc1ccc(NC(=O)COC(=O)CCc2ccc(S(=O)(=O)N3CCOCC3)cc2)c(C)c1,3.8,5285,-22,13,8,-5,2
CCOc1ccc(S(=O)(=O)NCCCN2CCOCC2)cc1,5.7,10411,-19,11,8,10,-2
COc1ccccc1-c1noc(CCC(=O)N2CCN(c3cc(C)ccc3C)CC2)n1,-6.0,3116,7,-9,-4,-21,.
CC1CCN(c2ccc3nnc(CCC(=O)N4CCCCC4)n3n2)CC1,2.7,5719,0,12,0,3,4
Cc1ccc(C(=O)N2CCCC2)cc1S(=O)(=O)N1CCCCC1,-2.0,6103,-16,0,-1,0,2
CCn1c(SCC(=O)Nc2ccc(C)cc2)nc2nc3c(cc2c1=O)CCCC3,26,8528,-28,11,2,2,-1
O=C(NCc1ccc(Cl)cc1)c1ccc(S(=O)(=O)N2CCCCC2)cc1,4.5,2821,-12,4,0,-6,.
Cn1c(SCC(=O)N/N=C/C=C/c2ccccc2[N+](=O)[O-])nc2ccccc21,.,2441,-16,.,.,.,5
COc1cccc(NC(=O)Cc2nnc(SCC(=O)NC3=NCCS3)n2C)c1,-1.9,4320,-18,-7,-12,-2,-2
CC(C)CNC(=O)c1cccc(NC(=O)COc2ccc([N+](=O)[O-])cc2)c1,-1.1,2755,-33,-1,1,6,2
NNC(=S)NC1CCCCC1,3.2,4613,80*,-5,-6,5,-15
CCC(C)(C)NC(=O)C(c1ccc(OC)cc1)N(Cc1cccs1)C(=O)CCC(=O)Nc1cc(C)on1 (configuration not stated),1.6,2588,-13,2,3,0,.
CCC(=O)Nc1nonc1-c1nc2ccccc2n1N(C(=O)CC)C(=O)CC,-5.1,4129,-2,.,.,5,-4
COc1cccc2oc3cc(C#CC4(O)CCCCC4)ccc3c(=O)c12,-1.1,4337,-23,20,13,8,2
CCN(CC)CCOC(=O)c1cc2cc(COC)ccc2o1,2.8,2706,-25,.,.,-14,4
Cc1cc(C)c(C#N)c(SCc2cn3ccccc3n2)n1,11,2212,-18,-8,7,0,2
O=C(c1ccc(F)cc1)N1CCN(Cc2ccccc2Br)CC1,1.6,3084,-14,.,.,5,3
O=C(NCCN1CCCC1)C1(S(=O)(=O)c2ccc(Cl)cc2)CC1,-0.1,11056,.,12,11,-4,0
